# ClpP mod – qHTS Assay for Activators of ClpP | ATP-dependent Clp protease proteolytic subunit (Bacillus subtilis (strain 168)), P80244 | purified B. subtilis ClpP, FRET peptide cleavage, 20 min | Potency, µM (highest dose often 57.5 µM), for inactives: at the highest dose activity change, negative = active | 1.9% of 340,000 active; active = well fitted falling curve with a large enough effect; inconclusive = small, poorly fitted or top-dose-only effect; inactive = no such curve, though single readings can be large or run the other way; further: potency means the concentration at half of the fitted maximal effect; the source files actives as falling curves though it sought activators and does not explain the sign; nearly all actives have a fitted effect of over 65% in size; many hits overshoot -100%
# Target sequence (P80244 whole entry, looked up): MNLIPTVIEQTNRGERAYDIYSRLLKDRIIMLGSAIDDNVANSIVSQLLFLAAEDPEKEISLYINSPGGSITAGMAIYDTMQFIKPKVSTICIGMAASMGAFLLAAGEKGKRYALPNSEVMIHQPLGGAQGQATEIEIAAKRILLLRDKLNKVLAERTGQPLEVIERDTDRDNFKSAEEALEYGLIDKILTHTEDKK
#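 Purified B. subtilis ClpP, 10 microg/mL final in Tris/HCl pH8 with KCl, BSA, glycerol and Tween-20, cleaved an Abz/nitrotyrosine-quenched decapeptide. Fluorescence (ex 320, em 430) was read at 0 and 20 min at room temperature. Delta was normalized to 5.8 microM ADEP and DMSO/no-enzyme controls.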
# Sfp PPTase inh – qHTS Assay for Inhibitors of Bacillus subtilis Sfp phosphopantetheinyl transferase (PPTase); Potency, µM, for the others: max response, negative = inhibition, hits mostly inhibitors; AID 1490, 2009; 3.5% of 310,000 active; Biochemical Sfp PPTase activity, qHTS; 4'-phosphopantetheinyl transferase ffp (Bacillus subtilis), Q9F4F7; active means well fitted inhibition curve with a large enough effect; inconclusive means small, poorly fitted or top-dose-only effect, or another doubt; inactive means no such curve, though single readings can be large or run the other way;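 further: the enzyme is Sfp with the accession as filed and its product quenches rhodamine fluorescence; potency means the concentration at half of the fitted maximal effect; 0% = enzyme reaction without inhibitor and -100% = no enzyme wells; top concentration of the series not given in the record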
#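 With Hepes-Na pH 7.6 buffer containing 10 mM MgCl2, Sfp (15 nM) modified BHQ-2-YbbR (12.5 uM) using rhodamine-CoA (5 uM). Two reads 30 minutes apart at 525/598 nm yielded each well's rate.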
# Menin MLL FP FL – qHTS Assay for Inhibitors Targeting the Menin-MLL Interaction in MLL Related Leukemias: Competition With Fluorescein Labeled MLL-derived Peptide. AID 1766, 2009. 290,000 tested, under 10 active. FP activity change, % at 61.4 µM. Fluorescence polarization, fluorescein-MLL peptide displacement from menin; inconclusive = falling polarisation curve, or a change in total fluorescence; inactive = total fluorescence flat and polarisation flat or rising; no compound was filed as active; the % refers to the polarisation; negative = inhibition;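 further: % of control where 0% means no effect; inhibitors lower the polarisation; unlabelled MLL peptide was the positive control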
# gsp ag – qHTS for Agonist of gsp, the Etiologic Mutation Responsible for Fibrous Dysplasia/McCune-Albright Syndrome: qHTS; gsp mutant cells, cAMP HTRF, 30 min; control for the full effect not named in the record; Potency, µM (series often up to 76.9 µM), for the others: at the top dose activation (cAMP increase), hits mostly activators; 0.13% of 340,000 active; active = well fitted activation curve with a large enough effect; inconclusive = small, poorly fitted or top-dose-only effect, or another doubt; inactive = no such curve, though single readings can be large or run the other way; cell line not stated here;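 further: phosphodiesterase inhibitor Ro 20-1724 added with compounds to block cAMP breakdown; potency means the concentration at half of the fitted maximal effect; nearly all actives have a fitted effect of over 60% in size; about a fifth of the inactives were tested at one dose only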
#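 Cells stably selected in G418 were plated at 2000/well, grown 16-24 hr, then given compounds in DMSO with the PDE inhibitor […] (300 uM solution added) for 30 min at 37C; cAMP was read by HTRF.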
# TRPV1 potentiator – HTS Assay for Compounds that Act as Potentiators of the Vanilloid Receptor 1; Transient receptor potential cation channel subfamily V member 1 (Homo sapiens), Q8NER1; potentiation, % at 8.33 µM; AID 540277, 2011; TRPV1-expressing cells, Fluo-8 calcium influx, capsaicin EC20 potentiation; host cell line not named in the record; control for the full effect not named in the record; 0.02% of 320,000 active; active means potentiation above 80%; inconclusive means 30% to 80%; inactive means below 30%; further: 0% is about no effect
# Target sequence (Q8NER1 whole entry, looked up): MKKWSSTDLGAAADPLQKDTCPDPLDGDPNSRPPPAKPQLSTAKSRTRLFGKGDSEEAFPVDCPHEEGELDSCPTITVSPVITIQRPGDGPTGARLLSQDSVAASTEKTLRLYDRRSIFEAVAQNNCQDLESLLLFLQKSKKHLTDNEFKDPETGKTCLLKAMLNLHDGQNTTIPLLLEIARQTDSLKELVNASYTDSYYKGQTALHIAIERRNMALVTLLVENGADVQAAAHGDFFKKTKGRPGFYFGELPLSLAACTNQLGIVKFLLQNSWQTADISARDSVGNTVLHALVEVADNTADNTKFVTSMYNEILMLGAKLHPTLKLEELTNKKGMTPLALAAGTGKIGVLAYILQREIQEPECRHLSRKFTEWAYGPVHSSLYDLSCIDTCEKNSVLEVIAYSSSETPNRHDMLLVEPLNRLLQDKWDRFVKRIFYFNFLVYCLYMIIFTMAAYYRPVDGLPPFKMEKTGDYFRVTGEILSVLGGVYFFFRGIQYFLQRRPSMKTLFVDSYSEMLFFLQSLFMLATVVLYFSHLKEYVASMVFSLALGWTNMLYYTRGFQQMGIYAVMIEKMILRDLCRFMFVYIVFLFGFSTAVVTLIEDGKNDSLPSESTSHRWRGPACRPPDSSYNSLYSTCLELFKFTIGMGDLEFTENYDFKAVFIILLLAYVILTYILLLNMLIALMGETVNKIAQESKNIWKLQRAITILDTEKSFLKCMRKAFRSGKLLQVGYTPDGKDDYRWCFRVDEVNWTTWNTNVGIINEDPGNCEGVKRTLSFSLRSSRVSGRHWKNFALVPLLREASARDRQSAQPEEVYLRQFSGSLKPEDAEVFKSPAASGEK
#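 Fluo-8 calcium influx in TRPV1-expressing cells, kinetic read (ex 480/em 520 nm). Compound added and read 3 min for agonist activity, followed by capsaicin at EC20 final and 2 min further read for enhancement.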
# gsp antagonist – qHTS for Antagonists of gsp, the Etiologic Mutation Responsible for Fibrous Dysplasia/McCune-Albright Syndrome: qHTS. Potency, µM (highest dose often 76.9 µM), for inactives: at the top dose activity change, negative = inhibition, most hits filed as inhibitors. AID 624288, 2012. 0.4% of 340,000 active. gsp-mutant cells, cAMP HTRF, 30 min; control for the full effect not named in the record; active = falling curve of any shape with a large fitted effect; inconclusive = falling curve, mostly with a smaller effect; inactive = flat or rising curve; cell line not stated here;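 further: intracellular cAMP measured with PDE inhibitor Ro 20-1724 present during compound exposure; potency means the concentration at half of the fitted maximal effect; on the % scale 0 is the no-effect control and ±100 the full control effect; nearly all actives have a fitted effect of over 65% in size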
#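 HTRF cAMP measurement after 30 min RT detection following 30 min, 37C compound treatment alongside […] (added as 300 uM solution) in G418-selected cells seeded at 2000/well and grown 16–24 h.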
# TRPML1 inh – qHTS for Inhibitors of the Human Mucolipin Transient Receptor Potential 1 (TRPML1) | TRPML1-inducible cells, Ca2+ dye fluorescence, FDSS; active compounds read low; inhibition of EC80 agonist-evoked calcium signal | AID 624415, 2012 | Mucolipin-1 (Homo sapiens), Q9GZU1 | activity change, negative = inhibition, % (concentration not given with the values) | 0.02% of 390,000 active; in the data active means activity change below about -50%; inconclusive means about -30% to -50%; inactive means above about -30%;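 further: stimulus is agonist 54-4 at its EC80 concentration; on the % scale 0 is the no-effect control and ±100 the full control effect; the text of the record puts the active cut at -80%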
#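 Calcium fluorescence in TRPML1-DL cells induced overnight with Tet: a 110 s read after compound pin addition, then a 110 s antagonist read after challenge with 54-4 at 4 uM final (EC80).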
# An asterisk follows results filed as active; ? = inconclusive; nt = not tested or not shown; & = joins results of further samples; [ ] = dose if it differs, or a comment.
# Order of values: ClpP mod	Sfp PPTase inh	Menin MLL FP FL	gsp ag	TRPV1 potentiator	gsp antagonist	TRPML1 inh
- CC1(NC(=S)Nc2ccccc2)CCS(=O)(=O)C1 (configuration not stated)
 : 0.3%	?	-0.6	-3%[15.4 µM]	nt	12%	5
- CCSc1nc2ccccc2n1CC(=O)OC
 : -0.7%	6%	2.5	0%	-7	-2%	32
- COC(=O)CN1C(=O)C2(C(C#N)=C(N)Oc3n[nH]c(-c4cccs4)c32)c2ccccc21 (configuration not stated)
 : -4.6%	-6%	1.9	1%	19	-3%	-7
- Cc1nnc(Nc2ccc(Cl)cc2)n(N)c1=O
 : -2.5%	4%	-0.6	-17%	0	5%	45
- Cc1c(Cl)cccc1NS(=O)(=O)c1ccccc1
 : -8.6%	nt	nt	7%	nt	-6%	-5
- O=S(=O)(NC1CCCCC1)c1cccc(-c2nnc(-c3ccccc3)o2)c1
 : -7.7%	5%	1.4	-10%	3	?	-9
- COc1ccc(Nc2ccc(Cl)cc2)c(C(=O)O)c1
 : 1.0%	5%	2.0	-6%	7	-34%	-4
- O[C@H]1c2ccccc2[C@H](Cc2cncs2)[C@@H]1Br
 : 1.5%	nt	nt	5%	7	9%	-10
- c1ccc(OCCCn2nnc(-c3ccc(N4CCOCC4)cc3)n2)cc1
 : 14%	16%	2.3	11%	-6	3%	-7
- O=S(=O)(c1ccc(Nc2ccc3c(c2)OCO3)nc1)N1CCOCC1
 : -3.6%	1%	1.4	0%	-6	12%	2
- Cc1c(NC(=O)c2cc3nc(-c4ccc(Cl)cc4)cc(C(F)(F)F)n3n2)c(=O)n(-c2ccccc2)n1C
 : -2.0%	-11%	4.1	6%	0	-2%	8
- O=C(Nc1ccccc1)Nc1cccc(Cl)c1Cl
 : 0.9%	0%	4.5	-27%	-8	29%	26
- Cc1cc(C(=O)NNC(=O)Nc2ccccc2)no1
 : 1.4%	17%	0.7	-9%[15.4 µM]	13	11%	-27
- Cc1cc(N2CCN(Cc3ccccc3)CC2)n2nc(C)c(-c3ccccc3)c2n1
 : 32µM*	1%	3.0	-4%	-5	1%	-5
- CCCCN1CC(COCc2ccccc2)Oc2cccc(N3CCCC3)c2S1(=O)=O (configuration not stated)
 : ?	nt	nt	nt	nt	1%	54

# Record cards (already shown). Order of screens: ClpP mod, Sfp PPTase inh, Menin MLL FP FL, gsp ag, TRPV1 potentiator, gsp antagonist, TRPML1 inh
# CCSc1nc2ccccc2n1CC(=O)OC is listed with -0.7%, 6%, 2.5, 0%, -7, -2%, 32
# COc1ccc(Nc2ccc(Cl)cc2)c(C(=O)O)c1 is listed with 1.0%, 5%, 2.0, -6%, 7, -34%, -4
# COC(=O)CN1C(=O)C2(C(C#N)=C(N)Oc3n[nH]c(-c4cccs4)c32)c2ccccc21 (configuration not stated) is listed with -4.6%, -6%, 1.9, 1%, 19, -3%, -7

# The list goes on:
# Order of values: ClpP mod	Sfp PPTase inh	Menin MLL FP FL	gsp ag	TRPV1 potentiator	gsp antagonist	TRPML1 inh
- O=c1[nH]c2ccccc2c2ccccc12
 : -23%	6%&6%	-0.6&-1.3	3%	3	-15%	-9
- O=C(CCN1C(=O)/C(=C/c2cccs2)SC1=S)N1CCCCC1
 : nt	-11%	-18	-1%[15.4 µM]	4	?	-12
- COc1ccccc1CC(=O)Nc1cccc(F)c1
 : nt	-3%	1.1	24%[15.4 µM]	-5	1%	-6
- CCOc1ccc(NC(=O)Nc2nnc(CC)s2)cc1
 : 28µM*	12%	-4.1	-8%	?	1%	-8
- Cc1ccc(C2=NC3(CCCCCC3)NC2=S)cc1
 : 0.8%	9%	2.9	2%[15.4 µM]	3	13%	-5
- COc1cc(C(=O)NCCOc2cccc(C)c2)c(Br)c(OC)c1OC
 : 0.6%	0%	9.0	6%	18	-3%	10
- O=C(N/N=C/c1ccccn1)c1cc(-c2ccc(Br)cc2)nc2ccccc12
 : -0.9%	22%	3.5	0%[15.4 µM]	18	2%	1
- COC(=O)c1ccc(NC(=O)CSc2nncc3ccc(OC)c(OC)c23)cc1
 : -5.1%	8%	3.5	4%	3	-19%	2
- Cc1c(C(=O)N2CCC2)oc2ccc(Br)cc12
 : nt	nt	nt	30%[15.4 µM]	-16	3%	-7
- O=C(CCCc1cccs1)Nc1nc2c(s1)CCCC2
 : 2.4%	-7%	-3.1	11%	-13	26%	2
- O=C(O)C(Cc1ccc(O)cc1)N1C(=O)C2CCCCC2C1=O (configuration not stated)
 : 1.4%	11%	-3.7	10%	-13	15%	1
- Cn1c2ccccc2c(=O)c2ccc(C#CC3(O)CCCCC3)cc21
 : 4.1%	11%	-0.3	17%	-10	?	32
- CC1CCCCC1NC(=O)C1CCCN1S(=O)(=O)c1cccc2nsnc12 (configuration not stated)
 : 3.4%	-7%	5.3	?	6	-1%	-5
- CCOc1ccc(CCNC(=O)C2CCCN(S(=O)(=O)c3c(C)n[nH]c3C)C2)cc1OCC (configuration not stated)
 : 0.5%	10%	-1.2	-29%	13	-8%	24
- O=C(CSc1nnc(CNC(=O)c2ccccc2)o1)NCC1CCCO1 (configuration not stated)
 : 1.6%	9%	nt	?	4	6%	-18
- O=S(=O)(Nc1nc(-c2ccccc2)cs1)c1cccc(C(F)(F)F)c1
 : nt	18%	-3.5	4%	0	-8%	11
- COCc1ccc(C(=O)Nc2cccc(S(=O)(=O)N(C)c3ccccc3)c2)cc1
 : nt	nt	nt	23%	nt	-22%	-8
- COc1ccc(NC(C)=O)cc1S(=O)(=O)N(C)Cc1c(C)nn(-c2ccccc2)c1C
 : -2.4%	nt	nt	13%	1	-8%	-9
- COCCNC(=O)c1ccc2snnc2c1
 : 0.0%	14%	1.1	-40%	-2	6%	4
- Cc1oc2ccccc2c1CNC(=O)N(C)C
 : -1.2%	15%	0.1	10%[15.4 µM]	-3	9%	21
- CCCOP(=O)(c1ccc(N(C)C)cc1)C(Nc1ccccc1)c1ccc(N(C)C)cc1 (configuration not stated)
 : -10%	-3%	4.1	28%	-8	-5%	21
- Cc1ccccc1-c1nc(CS(=O)CC(=O)NC2CCCCC2)c(C)o1 (configuration not stated)
 : -9.1%	2%	nt	-3%	8	7%	10
- NC(=O)c1cc(-c2ccccc2)nc(N2CCCCCC2)n1
 : -12%	-9%	6.8	-1%	-6	-20%	13
- CCCCC[C@H]1CN(C2CCCCC2)C(=O)[C@@H]1CC(=O)NCc1ccccc1
 : 2.9%&2.6%	-7%	-1.2	28%	-15	-21%	14
- O=C(O)CCSc1nc2ccccc2n1Cc1ccccc1
 : 2.3%	16%	0.6	3%	0	-28%	6
- O=C(O)C/C(=C\c1cccc(NC(=O)c2ccccc2Cl)c1)c1nc2ccccc2s1
 : -16%	14%	9.6	-6%	-7	-20%	97
- COc1ccc(N2CCN(Cc3nc4scc(-c5cccs5)c4c(=O)[nH]3)CC2)cc1
 : nt	17%	16	-7%[15.4 µM]	?	-7%	3
- O=C(c1c(F)c(F)c(F)c(F)c1F)N1CCN(Cc2ccc3c(c2)OCO3)CC1
 : 3.6%	nt	nt	-142%[inhibitor]	nt	0%	-4
- N/C(=N\c1nc2ccccc2o1)NC(=O)c1ccc(F)cc1
 : -1.8%	2%	4.7	4%	1	13%	-1
- CC(C)(C)c1ccc(C(=O)N/N=C/c2cccc(Cl)c2)cc1
 : 4.0%	?	3.4	8%	7	-25%	0

# Next part:
smiles | ClpP mod | Sfp PPTase inh | Menin MLL FP FL | gsp ag | TRPV1 potentiator | gsp antagonist | TRPML1 inh
COC(=O)c1ccccc1NC(=O)CCCn1nc(C)c2c(C)n(-c3ccccc3)nc2c1=O | -6.0%&-1.3% | 11% | nt | -1% | 4 | 0% | -7&-7
CCN(c1cccc(C)c1)S(=O)(=O)c1cc(CN2C(=O)c3cccnc3C2=O)ccc1OC | -2.9% | 7% | -2.4 | 15% | 4 | -10% | 9
Cc1nc(SCC(=O)Nc2ccccc2C(F)(F)F)c(C#N)c(C)c1CC(=O)c1ccc(Br)cc1 | nt | 4% | -1.3 | nt | -4 | nt | nt
Cc1cccc(NC(=O)c2cccc(N3C(=O)C4C5C=CC(C6CC56)C4C3=O)c2)c1 (configuration not stated) | -0.6% | 3% | 0.7 | 8%[15.4 µM] | -16 | -26% | -9
Cc1ccc(-c2ccc(SCC(=O)NC3CCCCC3)nn2)cc1 | -4.7% | 18% | nt | ? | -11 | 4% | -12
CCCc1sc(N)nc1-c1ccc(Cl)cc1 | 267% | 10% | 1.6 | -61%[inhibitor] | 5 | -19% | 22
CCOC(=O)C1(C(F)(F)F)N=C(c2ccccc2F)OC(N(C)C)=N1 (configuration not stated) | 2.7% | 2% | 2.0 | 26% | -3 | 0% | -1
CCOc1ccc(NC(=O)N2CCN(S(C)(=O)=O)CC2)cc1 | nt | 12% | 7.2 | -20%[15.4 µM] | -13 | 15% | 7
CCOc1ccc2[nH]c3nc(SCC(=O)NC4CCCC4)nnc3c2c1 | nt | 13% | -4.1 | 9% | -10 | -1% | -8
Cc1n[nH]c(C)c1N1C(=O)c2cccc3c(Br)ccc(c23)C1=O | -2.0% | -13% | 6.0 | 11% | -11 | 7% | 9
CC(=O)N(c1nnc(-c2ccc(C)cc2)s1)C1CCCC1 | nt | 22% | 2.5 | -51%[inhibitor] | -11 | 3% | 6
